Rango release inh – qHTS Assay for Inhibitors of RanGTP induced Rango (Ran-regulated importin-beta cargo) - Importin beta complex dissociation | Biochemical FRET Rango-importin beta, RanGTP-induced dissociation | Potency, µM (series often up to 46.1 µM), inactives show at the top dose activity change, negative = inhibition | 340,000 compounds, 0.071% hits | AID 540253, 2011; active means falling FRET ratio curve, often poorly fitted, with flat reads before Ran was added; inconclusive means other falling curves, or compound fluorescence or quenching; inactive means flat or rising ratio curve;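 note: potency is the fitted concentration of half-maximal effect; % of control where 0% means no effect; nearly all actives have a fitted effect of over 45% in size; -100% = wells without RanGTP and RCC1; the record marks most hits as doubtful in a second field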
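Rango/importin beta premix (0.1/0.25 uM final), PBS + 1 mM DTT + 0.02% Tween-20 + 0.1% BSA; cpd 5 min RT; FRET pre-read; + RanGTP-RCC1 (0.6 uM Ran, 2 mM GTP, 0.2 uM RCC1); 45 min RT; FRET post-read, ex 430, em 486/530 nm.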
Rango-impB inh – qHTS Assay for Inhibitors of Rango (Ran-regulated importin-beta cargo) - Importin beta complex formation | Importin subunit beta-1 (Homo sapiens), Q14974 | Rango CFP/YFP FRET sensor + importin beta, 45 min | Potency, µM (doses to about 92.2 µM), for inactives: top-dose inhibition of complex formation | 340,000 compounds, 0.031% hits; active = rising FRET ratio curve, often small or poorly fitted; inconclusive = mostly compound fluorescence or quenching in the first reads; inactive = flat curves in all reads;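 note: potency is the fitted concentration of half-maximal effect; 0% = DMSO wells and 100% = buffer wells lacking importin beta; nearly all actives have a fitted effect of over 15% in size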
Target sequence (Q14974 whole entry, looked up): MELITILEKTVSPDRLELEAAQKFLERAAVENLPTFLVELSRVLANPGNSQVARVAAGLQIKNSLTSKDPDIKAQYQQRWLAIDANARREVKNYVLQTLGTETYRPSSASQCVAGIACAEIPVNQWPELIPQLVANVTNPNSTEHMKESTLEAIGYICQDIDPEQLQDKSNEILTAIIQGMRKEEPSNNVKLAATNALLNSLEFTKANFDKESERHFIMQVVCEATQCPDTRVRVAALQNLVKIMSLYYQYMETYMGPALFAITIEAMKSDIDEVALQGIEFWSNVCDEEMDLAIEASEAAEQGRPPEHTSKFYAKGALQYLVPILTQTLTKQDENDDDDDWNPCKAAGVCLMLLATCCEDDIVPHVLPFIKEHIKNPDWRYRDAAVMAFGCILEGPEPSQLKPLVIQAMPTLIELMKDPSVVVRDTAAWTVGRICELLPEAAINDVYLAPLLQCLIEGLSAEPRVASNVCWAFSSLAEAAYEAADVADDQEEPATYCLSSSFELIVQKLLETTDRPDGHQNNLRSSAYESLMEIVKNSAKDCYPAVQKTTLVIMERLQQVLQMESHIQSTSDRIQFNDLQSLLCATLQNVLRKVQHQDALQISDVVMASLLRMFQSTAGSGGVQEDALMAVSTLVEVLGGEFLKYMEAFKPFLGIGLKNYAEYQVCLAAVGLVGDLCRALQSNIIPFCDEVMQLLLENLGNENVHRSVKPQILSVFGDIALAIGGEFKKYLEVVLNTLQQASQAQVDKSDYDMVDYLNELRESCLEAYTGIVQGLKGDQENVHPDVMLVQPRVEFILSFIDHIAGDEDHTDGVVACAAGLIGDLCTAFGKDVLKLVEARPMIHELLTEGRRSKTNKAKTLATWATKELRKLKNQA
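FRET biosensor (snurportin 1 IBB flanked by EYFP and cerulean), 50 nM, with compound 5 min, then 0.125 microM importin beta in PBS, 1 mM DTT, 0.02% Tween-20, 0.1% BSA. CFP/YFP ratio read after 45 min at room temperature; pre-read flags interference.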
GLA inh pH 4.5 – qHTS Assay for Inhibitors of Human alpha-Galactosidase at pH 4.5. purified enzyme, 4-MU-alpha-Gal fluorescence, pH 4.5. activity change, negative = inhibition, % at 105 µM. 230,000 tested, under 10 active. Alpha-galactosidase A (Homo sapiens), P06280; inconclusive = small, poorly fitted or top-dose-only inhibition, or a rising curve; inactive = flat fitted curve, though single readings scatter; no compound was filed as active;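 note: 0% = full activity with enzyme and -100% = basal without enzyme; dose as in the result columns while the protocol names 77 µM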
miR-21 FLuc – qHTS Assay for Modulators of miRNAs and/orActivators of miR-21. AID 2288, 2010. 340,000 tested, under 10 active. Potency, µM (top dose mostly 38.3 µM), inactives show top-dose reporter change, positive = more light. HeLa miR-21 FLuc reporter, luciferase, 48 h; active = well fitted rising curve with a large enough effect; inconclusive = small, poorly fitted or top-dose-only effect; inactive = no such curve, though single readings can be large or run the other way;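 note: % of control where 0% means no effect; miR-21 action dims this reporter so a rising signal means less miR-21 action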
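Compounds were titrated across several concentrations (up to approximately 40 uM) and incubated 48 hours with HeLa miR-21-FLuc reporter cells (miR-21 target sequence downstream of FLuc, endogenous miR-21). Readout was firefly luciferase luminescence after lytic detection reagent.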
* marks the source's active call; other numbers are inactive results; ? = inconclusive; . = no result given; & = joins results of further samples; [ ] = another dose, or the depositor's remark. Not all compounds are listed. The share of hits here may be higher or lower than overall.

Start of the data: the first twelve compounds (preview)
Rango release inh	Rango-impB inh	GLA inh pH 4.5	miR-21 FLuc	mol
5%	3.5%	.	-3%	COc1ccc(C(=O)CC(=O)C(=O)Nc2ccc([N+](=O)[O-])cc2C)cc1
-4%	-0.9%	-2	-3%	Clc1ccc(-c2c(C3=NCCCN3)nnn2-c2ccc(Cl)cc2)cc1
-15%	-2.2%	1	-7%	O=C(C1CC(=O)N(C2CCCCC2)C1)N1CCc2ccccc21 (centres undefined)
10%	-1.9%	-11	-2%	COC(=O)C(C)NC(=O)CNS(=O)(=O)c1ccc(F)cc1 (centres undefined)
39%	-0.4%	-4	1%	COc1ccc(/C=N/n2c(SC)nnc(C(C)(C)C)c2=O)c(OC)c1
-5%	4.4%	0	-3%	Cc1cc(=O)oc(C)c1C(=O)N1CCN(C(c2ccccc2)c2ccccc2)CC1
1%	-1.0%	-2	-13%	CCOC(=O)c1sc(=S)n(C)c1N
0%	0.2%	-1	0%	COc1ccc(C(=O)O)cc1Nc1cc(C)nc2ncnn12
-2%	-4.2%	.	2%	CN(CCCC(=O)O)S(=O)(=O)c1ccc2c(c1)C(=O)c1cc(S(=O)(=O)N(C)CCCC(=O)O)ccc1-2
0%	0.4%	?	-12%	COc1ccccc1N1CCN(Cc2nc(N)nc(Nc3ccc(C)cc3)n2)CC1
-8%	0.6%	-2	-9%	CCCNC(=O)NC(=O)COc1ccc2oc3ccccc3c2c1
?	?	.	.	N#Cc1cc2c(=O)n3ccccc3nc2n(Cc2cccnc2)c1=O

All compounds of this part, repeating the preview:
Rango release inh	Rango-impB inh	GLA inh pH 4.5	miR-21 FLuc	mol
5%	3.5%	.	-3%	COc1ccc(C(=O)CC(=O)C(=O)Nc2ccc([N+](=O)[O-])cc2C)cc1
-4%	-0.9%	-2	-3%	Clc1ccc(-c2c(C3=NCCCN3)nnn2-c2ccc(Cl)cc2)cc1
-15%	-2.2%	1	-7%	O=C(C1CC(=O)N(C2CCCCC2)C1)N1CCc2ccccc21 (centres undefined)
10%	-1.9%	-11	-2%	COC(=O)C(C)NC(=O)CNS(=O)(=O)c1ccc(F)cc1 (centres undefined)
39%	-0.4%	-4	1%	COc1ccc(/C=N/n2c(SC)nnc(C(C)(C)C)c2=O)c(OC)c1
-5%	4.4%	0	-3%	Cc1cc(=O)oc(C)c1C(=O)N1CCN(C(c2ccccc2)c2ccccc2)CC1
1%	-1.0%	-2	-13%	CCOC(=O)c1sc(=S)n(C)c1N
0%	0.2%	-1	0%	COc1ccc(C(=O)O)cc1Nc1cc(C)nc2ncnn12
-2%	-4.2%	.	2%	CN(CCCC(=O)O)S(=O)(=O)c1ccc2c(c1)C(=O)c1cc(S(=O)(=O)N(C)CCCC(=O)O)ccc1-2
0%	0.4%	?	-12%	COc1ccccc1N1CCN(Cc2nc(N)nc(Nc3ccc(C)cc3)n2)CC1
-8%	0.6%	-2	-9%	CCCNC(=O)NC(=O)COc1ccc2oc3ccccc3c2c1
?	?	.	.	N#Cc1cc2c(=O)n3ccccc3nc2n(Cc2cccnc2)c1=O
2%	7.4%	.	1%	CCOc1ccc(CC(=O)NCCc2cnc[nH]2)cc1
-3%	-1.6%	.	.	O=C(NC(=S)N1CCCC1)c1ccccc1F
1%	4.8%	.	2%	CSc1cccc(NC(=O)C2C3C=CC4(O3)C2C(=O)N(CCN2CCOCC2)C4C(=O)NC2CCCCC2)c1 (centres undefined)
43%	-1.8%	-10	-3%	Cc1cc(=O)oc(C)c1C(=O)NCCN(C)Cc1ccccc1
1%	1.2%	3	0%	Cc1ccc(-n2c(SCC(=O)N/N=C/c3ccccc3C(=O)O)nnc2-c2ccc(Cl)cc2)cc1
0%	0.9%	-2	-2%	CCOc1ccc2nc(SCC(=O)Nc3cccc(S(=O)(=O)NC4=NCCCCC4)c3)[nH]c2c1
-21%	?	-9	-17%	Cc1cc(C)c(C(=O)/C=C/C=C/c2ccccc2)c(=O)[nH]1
1%	0.6%	-6	-3%	O=[N+]([O-])c1ccc2c(c1)C(N1CCOCC1)/C(=C/COc1ccc(Cl)cc1Cl)O2 (centres undefined)
-5%	-3.8%	5	1%	COc1ccc(CNC(=O)COC(=O)c2cncc(Br)c2)cc1
15%	-1.0%	-11	-46%	O=C(CCc1ccccc1)Nc1ccc(N2CCCCC2)cc1
7%	-0.8%	0	-4%	CS(=O)(=O)N1CCC(C(=O)N2CCC(Cc3ccccc3)CC2)CC1
-13%	-0.1%	.	.	COc1ccc(NS(=O)(=O)c2ccc(C)c(NC(=O)C3CCCO3)c2)cc1 (centres undefined)
1%	-1.7%	.	0%	Cc1c(C(=O)N2CCCCC2)c(S(=O)(=O)NCCc2ccc(Cl)cc2)c(C)n1C
-7%	3.5%	.	.	CCCCCCCCCCCCCCCC(=O)OCC1OC(n2ccc(N)nc2=O)C(O)C1O (centres undefined)
-6%	6.6%	.	-34%	Cc1cc(NC(=O)CSc2nc3ccccc3cc2C#N)no1
18%	-0.3%	-1	-7%	COC(=O)[C@@H](NC(=O)CCc1nnc(-c2ccsc2)o1)C(C)C
-10%	-2.2%	.	4%	CC(=O)N1c2ccc(S(=O)(=O)N(C)CC(=O)Nc3ccccc3C)cc2CC1C (centres undefined)
14%	1.2%	2	-16%	c1ccc(SCc2cn3cccnc3n2)nc1
-11%	-0.1%	.	-1%	O=[N+]([O-])c1ccc(S(=O)(=O)Nc2ncccn2)cc1
-6%	5.3%	.	?	Cc1ccc(C(=O)Sc2cccccc2=O)cc1
-6%	?	.	0%	COC(=O)Cn1cnc2c(nnn2-c2ccc(OC)cc2)c1=O
0%	0.7%	-10	-3%	CSc1nc(N)n(-c2cc(C(F)(F)F)ccn2)n1
15%	-0.5%	-25	-4%	Cc1cc(C)cc(-n2nnc(C(=O)NCc3ccco3)c2N)c1
-20%	2.5%	3	-4%	O=S(=O)(Nc1cccnc1)c1cc(Cl)ccc1Cl
-5%	-0.3%	.	0%	Cc1nn(C)cc1S(=O)(=O)N1CCCCC1C (centres undefined)
6%	0.2%	1	?	O=S(=O)(c1ccc(F)cc1)c1snnc1-c1ccccc1
-1%	0.6%	.	.	NS(=O)(=O)c1ccc(N2CCOCC2)c(C(=O)NCc2ccc3c(c2)OCO3)c1
0%	-0.4%	3[21.1 µM]	1%	CC(CC(=O)O)CC(=O)NNC(=O)c1cccc(Br)c1 (centres undefined)
-12%	1.3%	.	.	CCCNC(=O)N1CCN(S(=O)(=O)c2ccc(C)c(C)c2)CC1
15%	0.6%	1	-11%	O=C(CCCCn1c(=O)[nH]c2ccccc2c1=O)NCc1ccc2c(c1)OCO2
-7%	-1.9%	.	0%	CCN1C(=O)CSC1=Nc1ccc(OC)cc1
-11%	?	-16	7%	Cc1ccc(S(=O)(=O)Nc2nc3ccccc3nc2NCc2ccco2)cc1C
8%	1.7%	11	1%	COc1cc(NC(=S)NCCCO)c(OC)cc1Cl
-1%	-2.6%	-9	-1%	CN(C)S(=O)(=O)c1ccc(Cl)c(NC(=O)COC(=O)CCC(=O)c2cccs2)c1
1%	-1.5%	-1	23%	Cc1c(C(=O)N/N=C/C(C)C)[nH]c2c([N+](=O)[O-])cccc12
3%	-0.3%	1	-19%	CCOC(=O)c1cnn(-c2ncnc3c2cnn3C)c1N
-14%	0.5%	.	-2%	CC(=O)Nc1ccc(S(=O)(=O)NCC2CCC(C(=O)NCCCN(C)Cc3ccccc3)CC2)cc1 (centres undefined)
16%	-1.3%	.	-45%	CCC(C)c1ccc(NC(=O)Nc2cccnc2)cc1 (centres undefined)
-20%	-5.9%	-6	-6%	COc1ccc(CN2CC(=O)N(c3ccccc3C)C2=S)cc1OC
9%	4.4%	.	-10%	C/C(=N\NC(=O)C(O)c1ccccc1)c1ccc(Cl)cc1 (centres undefined)
28%	-4.1%	-6	1%	CCOc1ccc(S(=O)(=O)N(CC(=O)N2CCc3ccccc32)Cc2ccco2)cc1
-11%	-1.7%	12	4%	Cc1ccc(S(=O)(=O)N2CCC(=O)N(CCOCc3ccc(F)cc3)CC2)cc1
.	.	-8	-3%	O=C(Oc1ccc2c3c(c(=O)oc2c1)CCC3)c1ccccc1[N+](=O)[O-]
-7%	0.5%	.	-4%	COc1cccc(N2CCN(c3ccc4nnc(CCC(=O)Nc5cccc(C(C)=O)c5)n4n3)CC2)c1
11%	?	6	0%	Cc1ccc(/C=C2/C(=O)c3ccc(C(=O)O)cc3C2=O)o1
3%	3.1%	2	1%	Cc1ccc(O)c(NC(=S)NC(=O)COc2ccc(Br)cc2)c1
4%	-4.6%	5	13%	COc1ccc(NCc2ccc([N+](=O)[O-])s2)cc1
-6%	3.2%	.	.	O=C(CN1C(=O)NC2(CCCC2)C1=O)OCCOc1ccc(Cl)cc1Cl

Continued.
Rango release inh	Rango-impB inh	GLA inh pH 4.5	miR-21 FLuc	mol
0%	-0.4%	2	-16%	CC/C(=N\NC(N)=O)c1ccc(OC)c(OC)c1
6%	-4.7%	.	.	O=C1C2C3C=CC(O3)C2C(=O)N1Cc1ccncc1 (centres undefined)
-11%	-0.3%	.	-1%	O=C(Nc1ccccc1N1CCN(C(=O)c2ccccc2)CC1)c1ccc(Br)o1
-3%	-1.6%	1	0%	CCCOc1ccc(C(=O)N2CCN(c3ccc(N)cc3Cl)CC2)cc1
-4%	2.4%	.	-2%	CC(=O)c1cccc(N2C(=NC(=O)CCc3ccccc3)SC3CS(=O)(=O)CC32)c1 (centres undefined)
-1%	1.5%	-5	0%	CC1CCCCC1NC(=O)CCCn1c(=S)[nH]c2ccccc2c1=O (centres undefined)
.	.	3	-3%	COc1cc(-c2cc(C(=O)NN3CCN(C)CC3)c3ccccc3n2)cc(OC)c1OC
7%	-4.3%	.	.	Cc1cc(C)n2nc(C(=O)OCC(=O)Nc3ccc(F)cc3F)nc2n1
0%	0.1%	4	-20%	Cc1cccc(/C(N)=N/OC(=O)N2CCOCC2)c1
1%	0.1%	6	-2%	CCCNC(=O)c1cn(CC)c2cc(N3CCN(C)CC3)c(F)cc2c1=O
1%	-4.4%	8	-13%	CC(=O)NCCC(=O)N1CCCC(C(=O)c2ccc3c4c(cccc24)CC3)C1 (centres undefined)
8%	-1.9%	.	-29%	COc1ccc(-c2cc(C(=O)Nc3ccc(C(N)=O)cc3)c3ccccc3n2)cc1
-13%	2.8%	11	0%	NC(=O)CSc1ccc(F)cc1
4%	1.1%	.	-17%	CN1CCN(C(=O)/C=C/c2c(F)cccc2Cl)CC1
-11%	-1.5%	.	-1%	CCCN(C(=O)COC(=O)C12CCC(=O)N1c1ccccc1S2)c1c(N)n(Cc2ccccc2)c(=O)[nH]c1=O (centres undefined)
-1%	-0.6%	-20	7%	COC(=O)c1[nH]c2cc(OC)ccc2c1NC(=O)c1nonc1C
-12%	1.7%	9	-6%	C=CCn1c(SCC(=O)NC(C)(C)C)nnc1-c1ccccc1O
0%	-4.2%	0	-21%	OCc1nc2ccccc2n1C/C=C/c1ccccc1
4%	-0.2%	0	0%	COc1ccc(Cl)cc1NC(=O)Nc1cn(C)nc1C
2%	-0.8%	3	-5%	Cc1cc(C)nc(SCC(=O)N/N=C/C=C/c2ccccc2)n1
?	-1.2%	0&-4&10	1%	C[N+](C)(C)CCCCCCCCCC[N+](C)(C)C
-15%	0.1%	.	4%	COc1ccc(CNS(=O)(=O)c2ccc3c(c2)N(C(C)=O)CCO3)cc1
-4%	-0.9%	.	-2%	CCN(CCC#N)c1ccc(N2C(=O)CCCC2=O)cc1[N+](=O)[O-]
7%	-0.6%	.	-2%	Cc1c(NC(=O)C23CC4CC(CC(Br)(C4)C2)C3)c(=O)n(-c2ccccc2)n1C
2%	1.3%	6	-24%	O=C(Nc1ccc(Cl)cc1)Nc1ccc(C(=O)N2CCOCC2)cc1
